Compound activity (PubChem BioAssay)
Biofilm kill mix = mixture kills Candida albicans biofilm cells; AID 1242; inhibition, % at 7.6 µM; C. albicans biofilm persisters + clotrimazole, fluorescence viability; primary screen in compound mixtures of four per well; hit rate 0.02% among 120,000;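 active = inhibition above 30.3% in the primary screen of four-compound pools, then above 30% when the compound was retested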;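 also: compounds exposed to preformed 24 h biofilms for 48 h; the number belongs to the whole pool; some results filed as inactive read as strong as hits; inactives centre near 12; 0% = biofilm with clotrimazole alone and 100% = kill control; retested singly at about 60 µM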
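Test system: C. albicans biofilms. Buffer or medium: RPMI/MOPS medium, pH 7.0. Timing: 48 h compound exposure at 37 °C. Technique: Alamar Blue fluorescence. Evaluation: percent inhibition of biofilm viability.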
Active calls of the source: *.

SMILES | Biofilm kill mix
COc1ccc(C(=O)NCC(=O)NCC(=O)OCC(=O)C(C)(C)C)cc1 | 16
CCOC(=O)C(=CNNc1c(C)csc1C(=O)OC)C(=O)OCC | 16
CCOC(=O)c1cc(-c2ccccc2)sc1NC(=O)CCN1C(=O)c2ccccc2C1=O | 7
CC(NCC(O)COc1ccc(S(=O)(=O)N2CCOCC2)cc1)c1ccccc1 (stereo unspecified) | 20
CC(C)c1csc(CN2CCN(CCc3ccccc3)C(CCO)C2)n1 (stereo unspecified) | 27
CCc1ccc(OCC(=O)O/N=C(\N)c2ccccn2)cc1 | 30
CCN(CC)CCN(Cc1cc2ccc(C)cc2[nH]c1=O)C(=O)NC1CCCCC1 | 12
Cc1ccnc(NS(=O)(=O)c2cnc(Cl)c(Br)c2)c1 | 18
C(#Cc1ccccc1)CN1CCCCC1 | 19
Cn1nc(-c2ccc3c(c2)OCCO3)c2ccccc2c1=O | 5
COc1ccc(S(=O)(=O)n2nc(OCc3cccs3)cc2N)cc1 | 15
N=C(N)c1ccccc1 | 22
Oc1ccccc1-n1nc2ccc3nonc3c2n1 | 17
CC(=O)N1C(C)(C)CC(=NOC(=O)c2ccc(C)cc2)CC1(C)C | 0
Cc1cc([N+](=O)[O-])ccc1NC(=O)c1ccco1 | 11
CC(C)(CSc1ncccn1)NS(=O)(=O)c1ccccc1 | 15
O=C(c1ccc(Cl)cc1Cl)N1CCSCC1 | 17
Cc1ccc2nc(C)cc(N/N=C/c3ccc(F)cc3)c2c1 | 18
COc1cccc(C(=O)C(C#N)=C(SC)SC)c1 | 17
COc1cc(OC)c(OC)cc1CN1CCC(O)CC1 | 16
CC(C)OC(=O)C1C2C=CC3(CN(Cc4cccs4)C(=O)C13)O2 (stereo unspecified) | 10
C#CCOC(=O)c1ccccc1C(=O)O | 7
Cc1ccc2cc(CCNC(=O)c3cccc([N+](=O)[O-])c3)c(=O)[nH]c2c1C | 9
COc1ccc(S(=O)(=O)N2CCCOC2CNC(=O)C(=O)NCc2ccco2)cc1 (stereo unspecified) | 31
COc1cccc(CC2(CO)CCCN(C(=O)c3cc[n+]([O-])cc3)C2)c1 (stereo unspecified) | 15
C/C(=N\NC(=O)Cn1ccc(C(F)(F)F)n1)c1ccc(N2CCOCC2)cc1 | 1
COc1ccc([N+](=O)[O-])cc1NC(=O)CSc1ncccn1 | 10
COc1ccccc1Sc1ccccc1/C=N/NC(N)=O | 5
Cc1ccc(S(=O)(=O)N(C)C)cc1NC(=O)CSc1ncc(C(F)(F)F)cc1Cl | 13
CC(=O)CSc1ncnc2sc3c(c12)CCC3 | 14
COC(=O)C1=C(C)N(c2ccc(OC)cc2)C(=O)/C1=C\c1cccs1 | 17
CC(C)(C)NC(=O)NC(=O)COC(=O)c1cccc(OC(F)F)c1 | -3
O=[N+]([O-])c1ccc2ccn(C3OCC(O)C(O)C3O)c2c1 (stereo unspecified) | 16
COc1ccc(NC(=O)c2sc3nc(-c4cccnc4)ccc3c2N)cc1OC | 7
Cc1ccnc(SCC(=O)N2CCCc3ccccc32)n1 | 15
CCCCCCCCCCCCS(=O)(=O)CCC(=O)O | 27
COc1ccc(-c2onc(C)c2-c2cnn(-c3ccccc3)c2)c(O)c1C | -2
CCCOc1ccc(/C=N/Nc2ccccc2[N+](=O)[O-])c(OCCC)c1 | 5
Cc1cccc(N=C2NC(=O)/C(=C/c3cccnc3)S2)c1C | 28
O=C(O)CCc1nc2ccccc2c(=O)[nH]1 | 14
CC(C)c1ccccc1NC(=S)N1CCN(S(=O)(=O)c2cccs2)CC1 | 14
Cc1ccc(-c2nc(NC(=O)CSc3ccc4ccccc4n3)ns2)cc1 | 2
COc1cc2[nH]c3ccccc3c2cc1C | 19
Clc1ncc(CN2CCN(c3ccccc3)CC2)s1 | 6
COc1ccc(C(=O)NCc2nnc(SCC(=O)Nc3ccccc3F)o2)cc1 | 10
CC(C)(C)NC(=O)C(c1cccs1)N(C(=O)c1csnn1)c1cccc(F)c1 (stereo unspecified) | 8
COc1ccc(OCC(=O)NNC(=O)C(=O)Nc2ccc(C)cc2)cc1 | 15
Cc1ccc(NC(=O)CN(C)C(=O)COc2cccc3cccnc23)cc1 | 21
CCOc1cc(C(=O)NC(=S)Nn2cnnc2)cc(OCC)c1OCC | 11
CC(C)Nc1nc(NC(C)C)nc(Nn2cnnc2)n1 | 17
O=C(CSc1nc2ncc(Cl)cc2[nH]1)c1ccc2c(c1)OCO2 | 28
COc1ccc(C)cc1S(=O)(=O)Nc1ccncc1 | 10
CCOC(=O)C1CCCN(c2nc3ccccc3nc2C(C#N)C(=O)OC(C)COC)C1 (stereo unspecified) | 13
Cc1[nH]n(-c2ccccc2)c(=O)c1CCO | 1
CCOCCCNC(=O)c1c[nH]c2cc(OC)ccc2c1=O | 25
COC(=O)c1sccc1NC(=O)/C=C/C(=O)O | -2
COc1ccc(C(=O)N2CCC(=O)N(C(CO)Cc3ccccc3)CC2)cc1 (stereo unspecified) | 4
NNC(=O)c1cccc(COc2ccc(Br)cc2)c1 | 13
COc1ccccc1OCC(=O)O/N=C(\N)c1ccccn1 | 29
Cc1ccnc(NC(=O)CCC(=O)N(CC(=O)NC2CCCCC2)Cc2cccs2)c1 | -2

The last 4 compounds of the part above come first, to join the parts.
SMILES | Biofilm kill mix
COc1ccc(C(=O)N2CCC(=O)N(C(CO)Cc3ccccc3)CC2)cc1 (stereo unspecified) | 4
NNC(=O)c1cccc(COc2ccc(Br)cc2)c1 | 13
COc1ccccc1OCC(=O)O/N=C(\N)c1ccccn1 | 29
Cc1ccnc(NC(=O)CCC(=O)N(CC(=O)NC2CCCCC2)Cc2cccs2)c1 | -2
Nc1nc(N)c(Cc2ccc(Cl)cc2Cl)c(N)n1 | 17
CN(C)c1ccc(/C=N/Nc2cc(N3CCOCC3)nc(N3CCOCC3)n2)cc1 | 7
O=C(CN1CCOCC1)Nc1scc2c1c(=O)oc1ccccc12 | 10
CCOc1ccc(-n2c(SCC(=O)Nc3nccs3)nnc2-c2ccoc2C)cc1 | 20
Cc1nnc(SC(C(=O)c2ccccc2)c2ccccc2)[nH]c1=O (stereo unspecified) | 18
CCCCNS(=O)(=O)c1ccc(NC(=O)Cc2ccc(OC)cc2)cc1 | 14
CC(C)c1ccc(O)c(NC(=S)NC(=O)c2cccnc2)c1 | 17
Nc1nc(N)c2c(ccc3nccc32)[nH]1 | 19
Cc1cccc(NC(=O)NCc2ccc3[nH]c(C)cc3c2)c1 | 7
COC(=O)CC1=NN(c2ccc(OC)cc2)C(=O)C1 | 7
O=C(Nc1ccc(F)cc1)C1CC(=O)n2ncnc2N1 (stereo unspecified) | 7
O=C1/C(=C/c2ccco2)Oc2c1ccc(O)c2CN1CCCCC1 | 5
NC(=S)NC(=O)/C=C/c1ccccc1 | 3
CSc1nc2ccccc2c(=O)n1C1CCOC(C)(C)C1 (stereo unspecified) | 10
O=C(COC(=O)CSCc1ccccc1)NCc1ccccc1 | 0
COc1ccc(C(=O)C2CCCN(C(=O)c3c4c(nn3C)CCCC4)C2)cc1F (stereo unspecified) | 13
N#Cc1ccc(OCC(=O)NN2Cc3ccccc3C2=N)cc1 | 9
NS(=O)(=O)c1ccc(NC(=O)COC(=O)/C(=C/c2cccs2)c2cccs2)cc1 | -1
CCC(C)NC(=O)c1ccccc1NC(=O)c1ccc(CSc2ccccc2)cc1 (stereo unspecified) | 19
c1ccc(Sc2ncnc3ccccc23)cc1 | 19

In another format: results already given
| compound | Biofilm kill mix |
| --- | --- |
| COc1cc2[nH]c3ccccc3c2cc1C | 19 |
| Clc1ncc(CN2CCN(c3ccccc3)CC2)s1 | 6 |
| COc1ccc(C(=O)NCc2nnc(SCC(=O)Nc3ccccc3F)o2)cc1 | 10 |
| CC(C)(C)NC(=O)C(c1cccs1)N(C(=O)c1csnn1)c1cccc(F)c1 (stereo unspecified) | 8 |
| COc1ccc(OCC(=O)NNC(=O)C(=O)Nc2ccc(C)cc2)cc1 | 15 |

(continued)
SMILES | Biofilm kill mix
CCOC(=O)NC(=S)Nc1ccc(C(C)(C)C)cc1Br | 20
CC[n+]1c(C)n(-c2ccccc2)c2ccc(NC(C)=O)cc21 | 12
CCOc1ccc(S(=O)(=O)NCc2ccccc2Cl)cc1C(N)=O | 18
O=C(CSc1nc2ccccc2c(=O)n1CCCN1CCOCC1)Nc1ccc2c(c1)OCO2 | 10
CCc1cccc2c(C(=O)CSc3nnc(-c4ccncc4)n3C)c[nH]c12 | 15
O=C(COC(=O)CCCN1C(=O)c2cccc3cccc(c23)C1=O)Nc1cccc(C(F)(F)F)c1 | 14
Oc1cccc(/C=N/N2CCN(c3ccccn3)CC2)c1 | 11
CCOc1ccccc1NC(=O)COC(=O)C1CC1 | 11
C=CCn1c(SCC(=O)Nc2ccccc2C)nc2sc(C)c(C)c2c1=O | 13
COc1ccc(-c2nc(-c3cccc([N+](=O)[O-])c3O)cc(=O)o2)cc1OC | 18
CCOC(=O)Cn1nc(C)c(NC(=O)CCc2ccc(OC)cc2)c1C | 11
O=C(O)CC/C(=N/NC(=O)c1cccs1)c1ccccc1 | 7
CC1(C)CC(=O)C(C2c3ccccc3S(=O)(=O)c3ccccc32)C(=O)C1 | 12
CC(=O)Nc1ccc(OCC(O)Cn2c(CO)nc3ccccc32)cc1 (stereo unspecified) | 17
CCNC(=O)NC(=O)C(C)On1nnc2ccc(S(=O)(=O)N(CC)CC)cc21 (stereo unspecified) | 19
CC(NC(=S)Nc1ccc(OC(F)F)cc1OC(F)F)C(C)(C)C (stereo unspecified) | 15
COc1ccc(OC)c(/C=C/C(=O)N2C(=O)c3cccc(N)c3C2=O)c1 | 12
Nc1nc(-c2cccnc2)nn1S(=O)(=O)c1ccccc1 | 13
O=C(NCc1cccs1)C(=O)NCC(c1ccco1)N1CCN(c2ccccc2F)CC1 (stereo unspecified) | 19
N#Cc1c(-c2cccs2)cc(-c2cccs2)[nH]c1=O | 16
COc1cccc(C2=NOC(C(=O)Nc3cccnc3Cl)C2)c1OC (stereo unspecified) | 11
Cc1cc(Nc2cccc([N+](=O)[O-])c2)c2ccccc2n1 | 19
Cc1cn(S(=O)(=O)c2cc(Br)ccc2Br)cn1 | 11
Cc1ccc(-c2nc(NC(=O)CSc3ncn[nH]3)ns2)cc1 | 19
CCn1c(C)nc2cc(C(=O)N/N=C/c3ccc(OC)c(O)c3)ccc21 | 14
Cc1cc(C)c2oc(C(=O)NCCc3ccc(S(N)(=O)=O)cc3)cc(=O)c2c1 | 27
CNc1nc(SC)nc(N(C#N)CC(=O)OC)n1 | 6
Nn1c(SCC(=O)Nc2nccs2)nncc1=O | 6
COc1cc(-c2nnc3n(CCc4ccccc4)c(=O)c4ccccc4n23)cc(OC)c1OC | 4
CCN(CC(=O)Nc1ccc(NC(C)=O)cc1)C(=O)COc1ccc(C(=O)c2ccccc2)cc1 | 12
Cc1ccc2nc(-c3ccccc3)cc(C(=O)NCC3CCCO3)c2c1 (stereo unspecified) | 30
O=C(CSc1ncnc2ccccc12)Nc1cc(S(=O)(=O)N2CCCCC2)ccc1Cl | -3
C=C(C(=O)c1ccccc1)C(C)C(=C)C(=O)c1ccccc1 | 27
CC(C)(C)NC(=O)COc1ccc(CNCc2cccnc2)cc1 | 14
O=C(Cc1ccccc1)Nc1ccc(NC(=O)c2cccc(Cl)c2)cc1 | 18
CCOc1ccccc1N1CCN(C(=O)CC(C)(C)C)CC1 | 13
CC(C)[C@H](NC(=O)c1ccccc1)C(=O)OCC(=O)NCc1ccc(F)cc1 | 6
CCn1nnnc1SCC(=O)N1CCN(c2ccccc2)CC1 | 21
CCCOc1cccc(C2C(C(=O)c3cccs3)=C(O)C(=O)N2Cc2cccnc2)c1 (stereo unspecified) | 11
Cc1ccccc1NC(=O)C12CC3CCC1(C)C3(C)CO2 (stereo unspecified) | 12
O=C1[C@@H]2C(c3ccc(F)cc3)=NO[C@@H]2C(=O)N1Cc1ccccc1 | 17
Cc1ccc2oc(=O)c3cc(C(=O)N4CCN(C(=O)c5ccco5)CC4)sc3c2c1 | 12
Cc1ccc(NC(=O)Cc2ccc(Cl)c(Cl)c2)cc1S(=O)(=O)N(C)C | 19
COC(=O)CCCC1=CC2=CC(=O)C(C)(OC(=O)c3cccs3)C(=O)C2=CN1Cc1ccc2c(c1)OCO2 (stereo unspecified) | 12
Cc1ccc(OCC(=O)N2CC(C)OC(C)C2)c([N+](=O)[O-])n1 (stereo unspecified) | 16
NNC(=O)c1cccc(S(=O)(=O)Nc2cccc(C(F)(F)F)c2)c1 | 22
O=C(NCCCN1CCc2ccccc2C1)C1CCN(S(=O)(=O)N2CCC3(CC2)OCCO3)CC1 | 9
c1ccc2c(c1)CCNC2c1ccncc1 (stereo unspecified) | 20
N/C(=N\OC(=O)COc1ccc(Cl)cc1)c1ccc(Cl)cc1 | -4
CC1=C(C(=O)O)N2C(=O)C(NC(=O)c3nn(C)cc3[N+](=O)[O-])C2SC1 (stereo unspecified) | -6
O=C(CNc1ccccc1)N/N=C/c1ccc2c(c1)OCO2 | 28
Brc1c(-c2ccc3c(c2)OCO3)nc2ncccn12 | 14
COCCCNC(=O)CCC(=O)NNc1nc2ccccc2c2nc(C)nn12 | 25
CCC(=O)NC(=S)NNC(=O)c1ccc(O)cc1 | 3
COC(=O)c1ccc(C(=O)OC)c(NC(=O)/C=C/C(=O)O)c1 | 2
Cc1cc2ccccn2c1C(=O)c1ccc(Cl)c([N+](=O)[O-])c1 | 12
CCC(=O)Nc1nnc(-c2ccc(Cl)s2)o1 | 10

Ordered by count of non-hydrogen atoms (highest first): six of the compounds above
SMILES | Biofilm kill mix
COCCCNC(=O)CCC(=O)NNc1nc2ccccc2c2nc(C)nn12 | 25
CC1=C(C(=O)O)N2C(=O)C(NC(=O)c3nn(C)cc3[N+](=O)[O-])C2SC1 (stereo unspecified) | -6
O=C1[C@@H]2C(c3ccc(F)cc3)=NO[C@@H]2C(=O)N1Cc1ccccc1 | 17
O=C(CNc1ccccc1)N/N=C/c1ccc2c(c1)OCO2 | 28
Brc1c(-c2ccc3c(c2)OCO3)nc2ncccn12 | 14
c1ccc2c(c1)CCNC2c1ccncc1 (stereo unspecified) | 20

Some of the compounds tested; the hit share may differ from the screen's.
